VDR inhibitor = vitamin D3 receptor (human) inhibition. P11473. VDR-SRC2-3 peptide fluorescence polarization, 2 h. Potency, µM, inactives show max response, negative = inhibition, usual class: inhibitors. 0.93% of 400,000 active. AID 504847; active means well fitted inhibition curve with a large enough effect; inconclusive means small, poorly fitted or top-dose-only effect, or another doubt; inactive means no such curve, though single readings can be large or run the other way; further: series mostly up to about 120 µM
Target sequence (P11473 whole entry, looked up): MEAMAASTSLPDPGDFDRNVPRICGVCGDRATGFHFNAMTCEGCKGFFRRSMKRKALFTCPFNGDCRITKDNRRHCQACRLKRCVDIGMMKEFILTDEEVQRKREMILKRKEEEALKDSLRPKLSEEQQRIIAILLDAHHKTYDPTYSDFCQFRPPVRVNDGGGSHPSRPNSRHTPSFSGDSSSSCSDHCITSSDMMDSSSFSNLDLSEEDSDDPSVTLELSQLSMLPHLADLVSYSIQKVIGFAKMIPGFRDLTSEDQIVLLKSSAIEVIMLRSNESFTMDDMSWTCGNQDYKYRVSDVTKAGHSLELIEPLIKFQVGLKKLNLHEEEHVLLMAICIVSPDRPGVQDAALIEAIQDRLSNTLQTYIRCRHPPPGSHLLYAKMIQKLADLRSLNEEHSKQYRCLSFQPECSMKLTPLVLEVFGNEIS
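Compounds are added to VDR with labelled SRC2-3 coactivator peptide and held 2 h at room temperature. Inhibition of the VDR–peptide interaction is then read as a change in fluorescence polarization.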
Starred values were filed as active, the others as inactive; ? = inconclusive. On the % scale 0 is the no-effect control and ±100 the full control effect; potency means the concentration at half of the fitted maximal effect. A portion of the library; the hit share may differ from the screen's.

SMILES	VDR inhibitor
Cc1sc2ncnc(N3CCCCC3C)c2c1C (stereo not drawn)	-19%
Cn1c(N)c(S(=O)(=O)N2CCCC2)c(=O)n(C)c1=O	12%
CSc1ncccc1C(=O)NC1CC(C)(C)Cc2c1cnn2-c1ccccc1C (stereo not drawn)	-13%
COc1ccc(N(CC(=O)N2CCc3ccccc3C2)S(C)(=O)=O)cc1Cl	-20%
COc1ccc(C(=O)Nc2ccc(C(=O)OCc3cc(=O)n4nc(C(C)C)sc4n3)cc2)cc1	10%
CCn1nnc2cc(C(=O)Nc3cc(OC)cc(OC)c3)ccc21	-6%
Cn1cnnc1SCC(=O)Nc1ccc(C#N)cc1	-1%
CCCCNC(=O)C1CCN(Cc2nc(-c3ccc(OC)c(OC)c3)oc2C)CC1	-12%
CCOC(=O)c1ccc(N2C(=O)CC(SCC(N)C(=O)OCC)C2=O)cc1 (stereo not drawn)	-2%
CC(=O)c1ccc(NC(=O)C2CC(=O)N(Cc3ccccc3)C2)cc1 (stereo not drawn)	-2%
Cc1cc(C)nc(NS(=O)(=O)c2ccc(NC(=O)CCC3COc4ccccc4O3)cc2)n1 (stereo not drawn)	-5%
Cc1nc(N)sc1-c1csc(N(C)c2ccc(O)cc2)n1	10%
Clc1ccc2c(c1)NC(c1ccncc1)=NC(c1cccs1)=N2	8%
COc1ccc([N+](=O)[O-])cc1NC(=O)CSc1nc(C)c(C)c(C)n1	13%
Cc1ccc(N2CCN(C3=NC(=O)C(Cc4ccccc4)S3)CC2)cc1 (stereo not drawn)	6%
C/C(=N\NC(=O)c1cccc(S(=O)(=O)Nc2ccc(C)cc2C)c1)c1ccncc1	11%
COc1ccc(C(=O)O)cc1S(=O)(=O)N(C)CCc1cccnc1	0%
CC(C)N(C)C(=O)c1ccc(OC2CCN(CCc3ccccc3)CC2)cc1	-4%
Cc1nn(-c2ccccc2)c(Cl)c1/C=N/NC(=O)CNC(=O)c1ccccc1Cl	-8%
Cc1ccccc1Cn1cc(S(=O)(=O)c2ccc(C(C)C)cc2)c(=O)c2cc3c(cc21)OCO3	14%
CN=C(Cc1ccccc1)C1=C(O)CC(C)(C)CC1=O	7%
O=C(COc1ccc(Br)cc1)N1CCN(c2ccccc2)CC1	0%
Cc1ccccc1OCC(=O)NCc1ccccc1	6%
CCn1c(-c2cc3c(C(F)(F)F)nn(C)c3s2)n[nH]c1=S	-1%
CCOc1ccc(S(=O)(=O)N2CCN(Cc3ccco3)CC2)cc1	3%
C[C@H]1COC(=O)[C@H](Cc2ccc(F)cc2)C/C=C\C[C@@H](CC(=O)N(CCO)Cc2ccccc2)C(=O)N1	-4%
COc1ccc(CNc2nc(-c3ccccc3)nn2C(=O)c2cccs2)cc1	-18%
CC(C)=CCc1c(O)cc(C)oc1=O	10%
O=C(/C=C/c1ccoc1)c1ccccc1O	-20%
Cc1ccc(N2C(=O)N(CC(=O)Nc3c(C)cc(C)cc3Cl)C(=O)C2C)cc1 (stereo not drawn)	1%
COC(=O)c1c(NC(=O)C2CC2)sc(C(=O)Nc2ccccc2)c1C	-11%
CCOc1ccc(/C(O)=C2\C(=O)C(=O)N(c3ccc(OC)cc3)C2c2ccccc2[N+](=O)[O-])cc1 (stereo not drawn)	1%
COc1ccc(N2C(=O)CC(N3CCC(O)(c4cccc(C(F)(F)F)c4)CC3)C2=O)cc1 (stereo not drawn)	12%
COc1ccc(CSc2n[nH]c(C)n2)cc1Br	13%
CC(=O)c1c(N2CCN(C(=O)c3ccco3)CC2)nc(=S)n(-c2ccccc2)c1C	-3%
Cc1ccccc1OCCSc1nc2ncnc(N)c2[nH]1	21%
Cc1ccc(C2CC(=O)NC3=C2C(=O)CCC3)cc1Br (stereo not drawn)	2%
CCn1c(C)nc2cc(C(=O)NN=Cc3ccccc3OC(F)F)ccc21	4%
O=C(Cn1cc(COc2ccc3ccc(=O)oc3c2)nn1)c1ccc(O)cc1	14%
CNC(=O)COC(=O)[C@@H](Nc1ccc(S(=O)(=O)N2CCOCC2)cc1[N+](=O)[O-])C(C)C	-10%
CC1(c2nnc(-c3ccc(Cl)cc3)o2)CC(c2ccc(Cl)cc2)=NO1 (stereo not drawn)	-11%
c1cc(CNC2=NCCCCC2)ccn1	6%
Cc1ccc(C)c(OCCC(=O)OCC(=O)NNC(=O)c2ccccc2)c1	9%
O=C(COC(=O)c1cc(Br)ccc1O)Nc1cccnc1Cl	0%
CC(=O)c1ccc(OC(C)C(=O)Nc2cccc(S(=O)(=O)NCc3ccco3)c2)cc1 (stereo not drawn)	-13%
CN(Cc1cn(C)nc1-c1cccc(Cl)c1)C1CCOCC1	-18%
CN1CCN(NC(=O)c2cc(S(=O)(=O)Nc3ccc(Cl)cc3)ccc2Cl)CC1	6%
CCSc1nc2c(sc3ccccc32)c(=O)n1C(C)C	-25%
CC1(C)CC(=O)C2=C(C1)N(Cc1ccccc1)C(=O)C2(O)C(F)(F)F (stereo not drawn)	-9%
CCCNC(=O)c1cc2c3ccccc3n(C)c2s1	-3%
O=C(Nc1ccccn1)c1ccc(Cl)s1	1%
COc1ccccc1-c1nc(N2CCOCC2)c2ccccc2n1	-4%
CCOc1ccc(-n2nc(CO)c(C(=O)NCc3cccc(OC)c3)n2)cc1	-3%
Cc1ccc(NC(=O)CSc2nc(-c3ccccc3Cl)nc3cc(=O)[nH]n23)c(C)c1	-5%
CCOc1cccc(NC(=O)C2CC(=O)N(C)C(=Nc3ccccc3)S2)c1 (stereo not drawn)	15%
Cc1cccc(C)c1NC(=O)C1CCCN1C(=O)NCc1ccccc1 (stereo not drawn)	-8%
CCOc1ccccc1Nc1sc(C(=O)c2ccccc2)c(N)c1C(=O)Nc1ccc(F)cc1	11%
COC1(c2ccccc2)NC(=S)NN=C1c1ccccc1 (stereo not drawn)	-6%
Cc1ccc(S(=O)(=O)N2CCCC2)s1	-8%
N#CCSc1nn(-c2ccc(F)cc2)c(=S)s1	?

3 structures from above, arranged by length of the SMILES, ascending.
SMILES	VDR inhibitor
COc1ccccc1-c1nc(N2CCOCC2)c2ccccc2n1	-4%
CCOc1cccc(NC(=O)C2CC(=O)N(C)C(=Nc3ccccc3)S2)c1 (stereo not drawn)	15%
CCOc1ccccc1Nc1sc(C(=O)c2ccccc2)c(N)c1C(=O)Nc1ccc(F)cc1	11%

(listing goes on)
SMILES	VDR inhibitor
NC(N)=Nc1nc2ccc(Cl)cc2c(=O)[nH]1	12%
CC(=O)N1CCN(Cc2cc(=O)n3cc(Cl)c(C)c(Cl)c3n2)CC1	-2%
O=C(N/N=C/c1ccc(N2CCCCC2)o1)c1ccccc1	22µM*
COc1ccc(CCNC(=O)c2ccc(=O)[nH]c2)cc1	-11%
CCOC(=O)c1ccc(N2C(=O)CC(N3CCCC(C)C3)C2=O)cc1 (stereo not drawn)	5%
COc1ccc(Cn2nnc3c(=O)[nH]c(C4CCN(C(=O)c5ccccc5Cl)CC4)nc32)cc1	4%
COc1cccc(S(=O)(=O)Nc2cccc(C(=O)N3CCOCC3)c2)c1	-4%
NC(=O)C1CCCN(C(=O)c2ccc(Cl)c(S(=O)(=O)N3CCc4ccccc43)c2)C1 (stereo not drawn)	-4%
CC(=O)Nc1cccc(NC(=O)Nc2cccc3ccccc23)c1	24%
Cc1ccn2c(=O)nc(SCC(=O)NC3CCCC3)nc2c1	-16%
CCCCCn1c(CN2CCN(C(=O)OCC)CC2)nc2c1c(=O)[nH]c(=O)n2C	-5%
COc1ccc(S(=O)(=O)N2CCCCC2)cc1NC(=O)C1CC(=O)N(Cc2ccccc2)C1 (stereo not drawn)	-3%
O=C(CNC(=S)NC(=O)c1ccccc1)c1ccccc1	-8%
Cc1c(Cl)cccc1NC(=O)CN(CCc1ccccc1)S(=O)(=O)c1ccccc1	-5%
CCOc1ccccc1N1C(=O)c2ccc(C(=O)O)cc2C1=O	2%
COc1ccc(C(=O)Nc2ccc(C(=O)NCCc3ccc(OC)c(OC)c3)cc2)cc1	4%
Cc1cccc(C)c1NC(=O)Cn1nnc(-c2ccc(CN3CCC(C)CC3)cc2)n1	-15%
CC(C)CN(C(=O)CN1CCN(c2ccc([N+](=O)[O-])cc2)CC1)c1c(N)n(CC(C)C)c(=O)[nH]c1=O	0%
COc1ccc(COC(=O)C2CC(=O)N(Cc3ccccc3)C2)cc1 (stereo not drawn)	-16%
O=C(O)CC/C(=C\c1ccccc1[N+](=O)[O-])c1nc2ccccc2s1	-12%

3 of these compounds, set out differently.
COc1ccc(Cn2nnc3c(=O)[nH]c(C4CCN(C(=O)c5ccccc5Cl)CC4)nc32)cc1
- VDR inhibitor = 4%
Cc1c(Cl)cccc1NC(=O)CN(CCc1ccccc1)S(=O)(=O)c1ccccc1
- VDR inhibitor = -5%
CC(C)CN(C(=O)CN1CCN(c2ccc([N+](=O)[O-])cc2)CC1)c1c(N)n(CC(C)C)c(=O)[nH]c1=O
- VDR inhibitor = 0%

The listing continues.
SMILES	VDR inhibitor
Cc1cc(C(=O)OCC(=O)NC2CCCC2)c2ccccc2n1	-1%
Cn1c(=O)n(CCN2CCOCC2)c(=O)c2c1nc1n2CCN1c1ccc(Oc2ccccc2)cc1	-5%
COc1ccccc1NC(=O)CSc1nc2ccccc2c(=O)n1C	-17%
CC1CCCC(NC(=O)CSc2cccc[n+]2[O-])C1C (stereo not drawn)	-8%
CC(=O)N1CCN(C(=O)c2ccc(NS(=O)(=O)c3ccc(Cl)c(Cl)c3)cc2)CC1	1%
CN(C)c1ncc2nc(-c3ccc(Cl)cc3)c(=O)n(Cc3cccs3)c2n1	?
O=C1CCCC2=C1C1(CCCCC1)N=C(Nc1nc3ccccc3o1)N2	-4%
CCOc1ccc2nc(N3CCCC(C(=O)NCC4CCCO4)C3)sc2c1 (stereo not drawn)	-19%
O=C(c1cnc2ccc3ccccc3c2c1)c1cc(F)ccc1O	0%
O=[N+]([O-])c1cccnc1-n1cnc2ccccc21	-5%
Cn1nccc1C(=O)Nc1cccc(S(=O)(=O)N2CCOCC2)c1	-12%
CNc1nc(-c2ccccn2)nnc1-c1ccccc1	-6%
CCOC(=O)c1[nH]c(C)c(C(=O)OCc2c(C)noc2C)c1C	-7%
Cc1cc(C)n2nc(C(=O)OC(C)C(=O)c3cc(C)c(C)cc3C)nc2n1 (stereo not drawn)	3%
Fc1ccccc1CNc1ccc(Cl)cc1	6%
C/C(=N\O)c1cc(Cl)ccc1O	2%
COc1ccc(CN(Cc2ccccc2)C(=O)Nc2ccccc2)cc1COc1ccc(NC(C)=O)cc1	-16%
S=C(Nc1cccnc1)NC1CCCC1	-4%
CC(=O)Oc1ccc(/C=C/c2nc3ccccc3c(=O)o2)cc1	22%
COc1ccc(-c2nc(CSCC(=O)NC3CCCC3)c(C)o2)cc1OC	-13%
COc1ccc(NC(=O)CSc2nc(C)cc(C)n2)c([N+](=O)[O-])c1	-3%
COc1cccc2sc3cc(NCc4ccc(C)o4)ccc3c(=O)c12	89µM*
Cc1cccc(C(=O)NNC(=O)c2n[nH]c(=O)c3ccccc23)c1C	1%
COC(=O)C1=C(C)N(CCc2ccccc2)C(=O)C1(NS(=O)(=O)c1ccc(NC(C)=O)cc1)C(F)(F)F (stereo not drawn)	-22%
CC(C)Cc1nn2c(=O)cc(COC(=O)CNC(=O)c3ccc(C(C)(C)C)cc3)nc2s1	10%
O=C1C2C3C=CC(CC3)C2C(=O)N1/N=C/c1ccccc1O (stereo not drawn)	9%
Cc1cccc(-c2noc(C3CCCCC3)n2)c1	-10%
C=CCCCOc1ccc(C(=O)O)cc1	12%
O=C1CSc2ccc(C(=O)Nc3cccc(S(=O)(=O)Nc4ccc(Br)cc4)c3)cc2N1	-19%
Cc1ccc(NC(=O)CCN2C(=O)c3ccccc3C2=O)cc1	-21%
Cc1c(-c2ccccc2)nc2ccccc2c1C(=O)OCC(=O)Nc1ncc(C(F)(F)F)cc1Cl	0%
COc1ccccc1OCCCCOc1ccccc1F	3%
Cc1nnc(NC(=O)CSC2CCCCC2)s1	0%
CCN(CC)S(=O)(=O)c1ccc(NC(=O)C(C)N(c2ccccc2)S(C)(=O)=O)cc1 (stereo not drawn)	5%
CCOc1ccccc1N(C(=O)Nc1ccc(Cl)cc1)C1=NC(C)CS1 (stereo not drawn)	-13%
COc1ccc(/C=C2\OC(=S)N(C)C2=O)cc1	2%
CC(C)[C@@H]1NC(=O)[C@@H](Cc2ccccc2)NC(=O)[C@H](CC(=O)O)NC(=O)CNC(=O)[C@H](CCCN=C(N)N)NC1=O	9%
CCCn1c2ccccc2c2cnn(CC(=O)Nc3ccc(C)cc3Br)c(=O)c21	19%
CCOC(=O)c1ccc(NC(=O)c2csnn2)cc1	6%
COc1ccc(NC(=O)CN(C)C(=O)CSc2ccc(Br)cc2)cc1	-1%
CN(C)c1nc(Cl)cc(N2CCOCC2)n1	10%
Cc1cc2nnc(SCc3ccc(F)cc3)n2c2ccccc12	-16%

Another view of five compounds above.
| Structure | VDR inhibitor |
| --- | --- |
| Cc1ccc(S(=O)(=O)N2CCCC2)s1 | -8% |
| N#CCSc1nn(-c2ccc(F)cc2)c(=S)s1 | ? |
| NC(N)=Nc1nc2ccc(Cl)cc2c(=O)[nH]1 | 12% |
| CC(=O)N1CCN(Cc2cc(=O)n3cc(Cl)c(C)c(Cl)c3n2)CC1 | -2% |
| O=C(N/N=C/c1ccc(N2CCCCC2)o1)c1ccccc1 | 22µM* |

Random excerpt: 4 records from the list
SMILES	VDR inhibitor
O=C1CSc2ccc(C(=O)Nc3cccc(S(=O)(=O)Nc4ccc(Br)cc4)c3)cc2N1	-19%
Cc1cccc(-c2noc(C3CCCCC3)n2)c1	-10%
COc1ccc(NC(=O)CSc2nc(C)cc(C)n2)c([N+](=O)[O-])c1	-3%
O=C1C2C3C=CC(CC3)C2C(=O)N1/N=C/c1ccccc1O (stereo not drawn)	9%

Bioassay records: PubChem BioAssay, National Center for Advancing Translational Sciences (NCATS)
